From PubChem
RGS16-Gao HTS: modulates binding between human RGS16 and Galphao | O15492+P09471 | 0.38% of 220,000 active | AID 1441 | binding response (% of control), % at 10 µM | bead-based flow cytometry RGS16-Galphao binding, fluorescence; actives lie on both sides;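 active = below 25% or above 175%, edge rows of some plates excepted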;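 note: Galphao activated by GDP with aluminum fluoride before binding; 100% = wells without compound and 0% = beads without RGS; some results beyond the cut were filed as inactive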
Target sequence (O15492 whole entry, looked up): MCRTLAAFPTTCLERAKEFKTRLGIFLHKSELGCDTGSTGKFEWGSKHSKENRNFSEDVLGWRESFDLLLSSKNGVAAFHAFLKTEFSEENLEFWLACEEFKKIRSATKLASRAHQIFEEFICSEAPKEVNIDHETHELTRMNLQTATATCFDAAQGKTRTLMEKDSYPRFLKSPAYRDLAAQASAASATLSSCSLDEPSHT
Target sequence (P09471 whole entry, looked up): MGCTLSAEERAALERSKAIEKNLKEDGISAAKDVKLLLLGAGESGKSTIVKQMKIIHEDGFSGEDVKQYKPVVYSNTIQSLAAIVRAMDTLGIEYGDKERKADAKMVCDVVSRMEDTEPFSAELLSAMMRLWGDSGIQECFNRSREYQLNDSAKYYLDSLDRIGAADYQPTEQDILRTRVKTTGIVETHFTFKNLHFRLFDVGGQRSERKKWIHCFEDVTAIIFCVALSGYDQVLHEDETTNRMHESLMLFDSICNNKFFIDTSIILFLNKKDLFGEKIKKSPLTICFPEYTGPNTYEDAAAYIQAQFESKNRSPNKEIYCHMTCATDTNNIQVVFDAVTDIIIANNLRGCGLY
INS promoter inh: TRM-6 insulin promoter activity inhibition. TRM-6 cells (human fetal islet line), insulin promoter-eGFP reporter, imaging; reporter expression induced with tamoxifen. inhibition, % at 2 µM. 0.9% of 130,000 active;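 active = inhibition above the mean plus 3 SD, with well images judged a real hit on visual review, cut at about 60% in these data, passing the limit was not always enough; inconclusive = inhibition over the cutoff but images rejected on review; inactive = inhibition not above the cutoff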
GALR2 agonist: activates the human galanin receptor 2. O43603. GALR2-expressing cells, agonist activation read-out. activation, %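 (tested at 5 µM)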. 0.48% of 140,000 active;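 active = above mean plus 3 SD of all compounds, about 5% in these data, not always enough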;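 note: 0% = vehicle buffer wells and 100% = reference agonist at full effect; tested in CHO reporter cells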
Target sequence (O43603 whole entry, looked up): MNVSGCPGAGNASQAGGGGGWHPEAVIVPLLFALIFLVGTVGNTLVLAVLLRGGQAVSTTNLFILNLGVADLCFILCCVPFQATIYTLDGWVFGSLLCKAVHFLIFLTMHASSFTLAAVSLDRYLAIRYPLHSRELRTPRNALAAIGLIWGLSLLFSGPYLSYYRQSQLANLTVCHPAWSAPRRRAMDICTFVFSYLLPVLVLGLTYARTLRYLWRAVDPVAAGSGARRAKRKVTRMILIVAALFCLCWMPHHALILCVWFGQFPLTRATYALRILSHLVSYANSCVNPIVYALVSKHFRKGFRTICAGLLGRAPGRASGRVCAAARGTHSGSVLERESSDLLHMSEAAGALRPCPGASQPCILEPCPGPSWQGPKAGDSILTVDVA
PKD1 inh: inhibitors of human PKD1 kinase | PKD1 kinase fluorescence polarization assay | inhibition, %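 (about 10 µM by stock and volumes)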 | 0.056% of 200,000 active | AID 797;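 active = inhibition of 50% or more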;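 note: controls were vehicle for no effect and a reference inhibitor for full effect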
HSV replic up: HSV replication enhancement; HSV replication augmentation in cells, fold increase; maximum fold increase; 0.005% of 220,000 active;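 active = peak rise of 1.5-fold or more in the series; inconclusive = self-fluorescent or not available for retest; tested in PC3 cells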;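 note: first round at 10 µM; read as green reporter fluorescence; hits show the peak of a series up to 25 µM; 1 = signal of infected wells without compound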
INS promoter inh cell count: second read-out of INS promoter inh, no call of its own (marks repeat the call); normalized cell count, %; measured here: cell count, toxicity; reference of the scale not given here;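 cells exposed to compound for 48 h; stained nuclei by imaging scaled within each plate; lower means fewer cells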
HSV replic up primary fold: also measured in HSV replic up; calls as there; fold increase; compound at 10 µM; measured here: primary screen fold increase 10 uM; tested in PC3 cells;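 GFP signal in the first replicate; 1 = infected wells without compound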
Active calls of the source: *; i = inactive; u = inconclusive; x = not tested or not shown.

Fields: RGS16-Gao HTS	INS promoter inh	INS promoter inh cell count	GALR2 agonist	PKD1 inh	HSV replic up	HSV replic up primary fold
COC(=O)[C@@H]1CC[C@H](C)[C@@H](c2ccc(C)cc2)N1C(=O)c1ccc(/C=N/O[C@H](C)c2cn([C@@H]3COC[C@H]3O)nn2)cc1
    71.8	25.0	85.2	-1.8	-8.4	x	x
CCCNc1nc2c(c(=O)[nH]c(=O)n2C)n1CCc1ccccc1
    99.4	10.0	109.3	-0.7	-13.9	i	0.98
Nn1c(SCC(=O)Nc2ccc3c(c2)OCO3)nnc1C1CC1
    99.4	36.8	173.4	-0.5	-5.9	i	1.18
O=C(COC(=O)c1cc(-c2ccc(Cl)s2)nc2ccccc12)NCc1ccco1
    103.8	22.9	55.1	1.0	0.8	i	0.99
COc1ccccc1N1CCN(C(=O)CCN2C(=O)c3cccc4cccc(c34)C2=O)CC1
    102.1	x	x	x	-6.8	i	0.93
Cc1ccn2cc(-c3ccc(NS(=O)(=O)c4ccccc4)cc3)nc2c1
    99.0	-7.1	76.2	-0.3	0.9	i	0.88
C/C(=N\NC(=S)NC1CCCCC1)c1ccc(C)o1
    101.0	x	x	x	-2.5	i	1.1
C/C(Cc1ccccc1)=N\NC(=O)CNC(=O)c1ccccc1Br
    16.6*	-11.1	124.8	-0.7	-13.6	i	0.8
COc1ccccc1N/C=C1/Sc2cc(Cl)ccc2NC1=O
    100.3	63.2	107.4	x	9.8	i	1.1
Nc1c(C(=O)NCc2ccc3c(c2)OCO3)nnn1-c1ccc(OC(F)(F)F)cc1
    95.9	-54.9	82.6	-1.1	-2.6	i	0.86
Cc1ccc(OCC(=O)Nc2ccc3c(c2)nc(CCN2CCOCC2)n3C)cc1
    102.3	x	x	-0.7	-2.6	i	0.75
O=C1/C(=C/C=C/c2ccccc2)Oc2c1ccc(O)c2CN1CCN(CCO)CC1
    84.7	x	x	x	x	u	x
O=C(Nc1ccccc1Cl)C1(c2ccccc2)CC1(Cl)Cl (centres undefined)
    106.5	-26.7	117.6	4.0	4.3	i	1.04
N#Cc1nc(Cc2cccc3ccccc23)oc1NCc1ccc2c(c1)OCO2
    110.9	x	x	-1.7	-2.0	i	1
COc1ccccc1N(CC(=O)Nc1ccc(F)c(F)c1)S(C)(=O)=O
    94.2	-81.4	95.0	-3.8	-10.1	i	1.02
O=C(N/N=C/c1ccccn1)C1CC1
    131.0	-133.9	99.5	-2.3	0.1	i	0.95
O=c1oc2ccccc2cc1-c1cn(-c2ccccc2)c(=S)[nH]1
    94.6	-25.0	133.5	0.1	2.6	i	0.76
CCn1ncc(/C=N\NC(=O)COc2ccccc2)c1C
    70.1	46.9	106.0	-0.3	6.8	i	0.96
COc1ccc(C2CC(C)=NN2C=O)cc1OC (centres undefined)
    101.3	-22.2	145.7	-2.2	-2.9	i	0.96
O=C(COc1ccc(Br)cc1Br)NC(=S)Nc1cccc(CO)c1
    91.6	0.0	63.4	-0.9	-20.6	i	0.99

Entries of single compounds as entered above. Screens in order: RGS16-Gao HTS | INS promoter inh | INS promoter inh cell count | GALR2 agonist | PKD1 inh | HSV replic up | HSV replic up primary fold
N#Cc1nc(Cc2cccc3ccccc23)oc1NCc1ccc2c(c1)OCO2 is listed with 110.9 | x | x | -1.7 | -2.0 | i | 1
COc1ccccc1N1CCN(C(=O)CCN2C(=O)c3cccc4cccc(c34)C2=O)CC1 is listed with 102.1 | x | x | x | -6.8 | i | 0.93

(list continues)
Fields: RGS16-Gao HTS	INS promoter inh	INS promoter inh cell count	GALR2 agonist	PKD1 inh	HSV replic up	HSV replic up primary fold
Nc1ccc(C2=Nc3cccc4cccc(c34)N2)cc1
    93.1	x	x	-2.0	3.5	x	x
CC(=O)NC(N1CCCCC1)C(F)(F)C(F)(F)C(F)(F)C(F)F (centres undefined)
    80.3	0.0	121.6	-1.3	4.3	i	0.95
CCCCOc1ccc(C2OC34CCCCC3C(C#N)(C#N)C2(C#N)C(=N)O4)cc1 (centres undefined)
    100.5	25.0	49.2	0.6	-5.3	u	x
Cc1onc(-c2ccccc2)c1-c1n[nH]c(=S)n1-c1ccccc1Cl
    99.8	-31.6	261.4	0.2	3.0	i	0.58
CCn1c(SCC(=O)Nc2ccc(Cl)cc2)nc2nc3c(cc2c1=O)CCCC3
    111.1	26.5	77.4	4.7	1.8	i	1.05
CN(CC(=O)Nc1ccc(N2CCOCC2)cc1)CC(=O)Nc1cccc(C#N)c1
    102.9	26.7	84.7	-0.2	-6.0	i	1.03
CCOc1cccc(-c2nnc3sc(-c4cc(OC)c(OC)c(OC)c4)nn23)c1
    120.6	-40.4	172.1	0.9	-8.4	x	x
COc1ccc(C(=O)Sc2ccc(Cl)cc2)cc1OC
    104.2	x	x	-3.3	-7.7	x	x
CCOC(=O)c1oc2ccccc2c1N
    99.1	48.6	172.1	-1.9	-12.0	i	0.993
CCOC(=O)CSc1n[nH]c(=S)s1
    84.3	x	x	x	x	i	1
CC1(C)Cc2cccc(OCC(=O)O)c2O1
    37.4	21.9	88.8	-2.4	-0.9	i	0.94
Cc1[nH]n(-c2ccccc2)c(=O)c1C(C[N+](=O)[O-])c1ccc(F)cc1 (centres undefined)
    103.4	7.7	111.4	-0.8	6.5	i	0.89
CCCCCCCC(=O)NC(Nc1ccc(S(N)(=O)=O)cc1)C(Cl)(Cl)Cl (centres undefined)
    98.5	-3.2	146.0	-1.7	26.1	i	0.97
Cc1cc(/C=C2\SC(=Nc3ccc(F)cc3)NC2=O)c(C)n1-c1ccc(S(N)(=O)=O)cc1
    98.9	40.0	82.6	-2.1	0.3	i	0.86
COc1ccc(C2C(C(C)=O)=C(O)C(=O)N2CCc2c[nH]c3ccccc23)cc1OC (centres undefined)
    85.8	-42.9	125.4	-1.8	-1.9	i	1.05
COC(=O)c1cc(OC)c(OC)cc1N
    96.9	x	x	-2.1	-4.5	i	1.02
COc1ccc(CNC(=O)c2cccc(-c3ccc(C)c4ccccc34)n2)cc1
    97.8	-4.8	107.4	0.6	-9.3	i	0.62
COc1ccc(Cl)cc1S(=O)(=O)N1CCCC1
    x	17.9	69.7	-1.8	3.4	i	0.94
O=C(c1ccccc1)c1c[nH]c(C(=O)C(Cl)(Cl)Cl)c1
    100.4	x	x	x	0.8	i	0.85
CC(=O)c1c(C)[nH]c(C(=O)OCC(=O)NCCC(C)C)c1C
    110.6	-6.7	74.8	x	-0.6	i	0.97

A stretch of the results above, as a working copy:
Fields: RGS16-Gao HTS	INS promoter inh	INS promoter inh cell count	GALR2 agonist	PKD1 inh	HSV replic up	HSV replic up primary fold
COc1ccc(CNC(=O)c2cccc(-c3ccc(C)c4ccccc34)n2)cc1
    97.8	-4.8	107.4	0.6	-9.3	i	0.62
COc1ccc(Cl)cc1S(=O)(=O)N1CCCC1
    x	17.9	69.7	-1.8	3.4	i	0.94
O=C(c1ccccc1)c1c[nH]c(C(=O)C(Cl)(Cl)Cl)c1
    100.4	x	x	x	0.8	i	0.85
CC(=O)c1c(C)[nH]c(C(=O)OCC(=O)NCCC(C)C)c1C
    110.6	-6.7	74.8	x	-0.6	i	0.97

Other entries follow:
Fields: RGS16-Gao HTS	INS promoter inh	INS promoter inh cell count	GALR2 agonist	PKD1 inh	HSV replic up	HSV replic up primary fold
Cc1ccc(N2CC(C(=O)N3CCCc4ccccc43)CC2=O)cc1 (centres undefined)
    158.2	x	x	-1.4	-2.3	i	0.97
Cc1cc(N2C(=O)C(O)=C(C(=O)c3cccs3)C2c2cccc(O)c2)no1 (centres undefined)
    111.1	19.2	105.5	-1.5	0.7	i	1.03
CC(=O)CSc1nnc(NC(=O)CCc2ccccc2)s1
    100.7	-9.7	194.7	-1.3	10.4	i	0.98
CCCC1=[N+](CC(=O)c2ccccc2)CCn2cccc21
    95.2	x	x	-0.9	3.4	i	1.09
O=C(Nc1ccc(S(=O)(=O)NC2=NCCCCC2)cc1)C1COc2ccccc2O1 (centres undefined)
    100.8	x	x	x	x	i	0.93
Cc1ccc(S(=O)(=O)NN2C(=O)c3ccccc3NC2(C)C)cc1
    112.4	-36.1	128.6	-0.8	-8.9	i	0.92
CCOC(=O)NC(=O)CSc1nc(C)cc(C(F)(F)F)c1C#N
    105.0	-8.6	122.8	-1.3	-3.4	i	1.19
Cc1cc(C)c(S(=O)(=O)Nc2ccc(O)c(Sc3ncn[nH]3)c2)c(C)c1
    82.6	-38.5	62.4	-2.1	-4.4	i	0.89
CCn1c(SCC(=O)Nc2nc(C)cs2)nnc1C(C)NC(=O)c1ccccc1 (centres undefined)
    104.7	-37.1	162.5	-2.6	-3.4	i	1
O=C(N1CCOCC1)N1CCN(C(=O)N2CCOCC2)CC1
    x	-14.3	99.1	-1.4	-0.2	x	x
Nc1ccc(-c2ccc(C(=O)O)s2)cn1
    102.9	x	x	x	5.1	i	1.04
C/C(N)=C(/C#N)C(=O)COC(=O)C(NS(=O)(=O)c1ccc(Cl)cc1)C(C)O (centres undefined)
    97.8	x	x	-2.4	-2.0	i	0.86
Cc1ccc(-n2[nH]c(C)c(C=Nc3ccc(S(=O)(=O)Nc4nccs4)cc3)c2=O)c(C)c1
    109.0	x	x	x	-8.3	i	0.7
Cc1cccc(C)c1NC(=O)CSc1nc(C)c(CC(=O)c2ccc(Br)cc2)c(C)c1C#N
    101.6	x	x	-2.3	-10.8	i	0.81
O=C(CCSc1nnc(-c2ccncc2)o1)Nc1ccc(F)cc1
    107.8	x	x	-1.2	-2.0	i	1.02
CCOc1ccc(C(Nc2ccc(C)cc2)P2(=O)OCC(C)(C)CO2)cc1 (centres undefined)
    105.6	15.4	188.6	0.6	-3.0	i	0.97
COc1cccc(-c2csc3nnc(SCC(=O)NCc4cccs4)n23)c1
    103.2	x	x	-0.3	2.2	i	1.19
Cc1ccc(NC(=S)NC(CO)C(O)c2ccc([N+](=O)[O-])cc2)cc1 (centres undefined)
    103.4	x	x	x	0.6	i	1.12
O=C(NCCCCCCNC(=O)OC1CCS(=O)(=O)C1)OC1CCS(=O)(=O)C1 (centres undefined)
    96.9	-21.6	119.6	-2.7	-6.4	i	0.99
N#CC(/C(=N/S(=O)(=O)c1cccs1)c1ccccc1)c1nc2ccccc2[nH]1 (centres undefined)
    66.0	32.2	109.1	-0.9	-7.3	x	x

Continued:
Fields: RGS16-Gao HTS	INS promoter inh	INS promoter inh cell count	GALR2 agonist	PKD1 inh	HSV replic up	HSV replic up primary fold
O=C(c1cccs1)N1C(=O)c2cccc3cccc1c23
    103.0	x	x	x	-2.5	i	0.99
CC(=O)NCCc1nc2ccccc2n1Cc1cccc(C)c1
    104.0	x	x	x	x	i	0.98
CCn1c(SCC(=O)N/N=C(\C)c2ccncc2)nnc1-c1ccccc1
    103.0	0.0	102.2	x	7.6	i	0.99
N#C/C(=C\c1coc2ccccc2c1=O)C(N)=S
    106.4	-90.9	183.9	x	-7.0	i	0.91
CCOc1ccc(S(=O)(=O)n2ccc(C)n2)c2ccccc12
    104.7	-42.9	100.0	-0.6	-0.9	i	1.06
COC(=O)c1ccc(C(=O)OC)c(NC(=O)CN(C)Cc2ccccc2)c1
    99.8	-13.3	113.8	0.2	3.6	i	1
CCn1c(SCC(=O)Nc2nnc(C)s2)nc2c(c1=O)SC(C)C2 (centres undefined)
    99.6	x	x	-1.3	-4.8	i	1.03
O=C(NCCO)/C(=C\c1ccc2c(c1)OCO2)NC(=O)c1ccc(Br)cc1
    112.0	-37.0	139.4	-0.2	-7.1	i	0.98
Cc1cc(NC(=O)/C(C#N)=C/c2ccc(-c3ccc(SC(F)F)cc3)o2)n(-c2ccccc2)n1
    108.6	26.7	126.3	-1.4	5.0	x	x
Cn1ccnc1C1CCCCN1Cc1nc(-c2ccc(Cl)cc2)no1 (centres undefined)
    114.7	x	x	x	6.0	i	0.9
Cc1c(NC(=S)NC(=O)c2ccc(-c3ccc(Cl)cc3)o2)cccc1C(=O)O
    101.3	42.9	45.2	x	0.6	i	1.08
COCCCNC(=O)c1cn(Cc2c(F)cccc2Cl)nn1
    106.9	-75.0	110.6	-0.2	-16.2	i	0.95
CC1(C)CC(=O)C(C=NCc2ccc3c(c2)OCO3)=C(O)C1
    103.8	-437.9	63.2	-1.4	-0.5	i	0.86
Nc1cc(=O)[nH]c(SCC(=O)N2CCCc3ccccc32)n1
    91.3	37.5	161.0	-2.3	-6.0	i	1.12
CCCCn1nnc(NC(=O)COc2ccc(Cl)c(C)c2)n1
    50.3	35.7	101.2	-1.5	-0.2	i	1.01
Cc1ccc(C(C)C)cc1OCCCCN1CCCC1
    107.0	-41.2	100.9	-0.2	-2.8	i	0.88
C/C=C/c1ccc(OCC(=O)Nc2ccc(OC)c(OC)c2)c(OC)c1
    101.9	x	x	x	2.6	i	0.98
CCOC(=O)C1C(=O)NC(N2CCc3ccccc32)=NC1c1ccccc1 (centres undefined)
    103.0	33.3	126.6	-1.2	-1.0	i	0.95
